AID504770 – E. coli YBA685 growth inhibition, screen for V. cholerae RctB inhibitors; hit rate 0.27% among 130,000; z-score (no concentration beside the values); E. coli YBA685 rctB-dependent plasmid, OD600 growth, 3 h; stronger effect = lower value; AID 504770;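 active means z-score under -2 on both plates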;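 further: wells of about 30 µL received 100 nL stock; score is relative to mean and SD of the test wells; the first replicate is given; strong numbers were not always called active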
Ba CapD inh – CapD enzyme inhibition; z-score (no concentration beside the values); purified CapD enzyme, fluorescence intensity read-out; stronger effect = lower value; some hits fall short of the stated cut; hit rate 0.23% among 140,000;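 active means z-score under -4 in either of two replicates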;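 further: stock transfer was 100 nL into about 40 µL; score is relative to mean and spread of the plate; one replicate is shown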
* hit, by the source's call; i = inactive; · = no result given; & = joins results of further samples.

SMILES	AID504770	Ba CapD inh
O=C1CCCC(O)=C1C=Nc1ccc(Br)cc1	0.95	0.14
O=C(Cn1cnc2ccccc2c1=O)OCC(=O)c1ccc2c(c1)OCO2	0.95	·
CN(C)c1cccc(C(=O)NCC(c2cccs2)N(C)C)c1 (centres undefined)	-1.25	·
Cn1c(-c2ccccc2)c[n+]2c1-c1ccccc1C2	·	2.42
C=CCNC(=O)CCn1c(=O)oc2ccccc21	-0.1	-1.36
Cc1ccccc1Cc1c(C)nc2c(C(=O)NCc3ccco3)cnn2c1C	0.9	19
CN1CCCNC1c1ccc(-c2ccc(Br)cc2)o1 (centres undefined)	-0.95	-0.385
Cc1cccc(Cc2cnc(NC(=O)Cn3cnc4ccccc4c3=O)s2)c1	0.1	·
COc1cccc(CNCc2cccn2-c2nnc(N3CCCC3)s2)c1	-0.1	0.81
COc1ccc(O)c(C(=O)c2cnc3c(c2)c(C)nn3CCO)c1	1.4	·
CC(C)(C)c1nnc(SCC(=O)c2ccc(F)c(F)c2)n1N	-0.8	·
CC(C)N1C/C(=C/c2ccc(Br)o2)C(=O)/C(=C/c2ccc(Br)o2)C1	-0.9	-0.965
CC(Cc1ccccc1)NCc1ccco1 (centres undefined)	-0.35	·
Cc1ccc(N2C(=O)CC(Sc3ccccc3C(=O)N3CCOCC3)C2=O)cc1 (centres undefined)	-0.25	-0.42
Cc1n[nH]c(C)c1S(=O)(=O)NCc1ccccc1	-1.5	0.075
O=C(O)c1cccc(-n2nnnc2SCc2ccccn2)c1	-0.4	-0.09
O=C(OCCN(Cc1ccccc1)Cc1ccccc1)N1CCC(O)(c2ccc(Cl)cc2)CC1	·	0.51
CCOc1ccccc1C1NC(=O)NC(C)=C1C(=O)OCc1ccc2c(c1)OCO2 (centres undefined)	·	0.185
CCOc1ccc(CN(C)C(C)c2nnc(-c3ccc(C)cc3)o2)cc1 (centres undefined)	-0.65	·
Cc1nc2cc3c(cc2[nH]1)OCCO3	0.55	·
COc1cc(C(C2=C(O)CC(C)(C)CC2=O)C2C(=O)CC(C)(C)CC2=O)cc(OC)c1OC (centres undefined)	·	0.5
COc1ccc(Cc2nc(-c3ccc(Br)cc3)no2)cc1	1.6	-0.38
c1coc(CNC2CCCC2)c1	-0.5	·
CC(=O)Oc1ccc2oc(-c3ccccc3)c(C(=O)O)c2c1	0.85	25
COc1ccc2[nH]cc(CCNS(=O)(=O)c3ccc(Cl)c(Cl)c3)c2c1	·	-0.84

2 entries from above, as a markdown table.
| SMILES | AID504770 | Ba CapD inh |
| --- | --- | --- |
| C=CCNC(=O)CCn1c(=O)oc2ccccc21 | -0.1 | -1.36 |
| Cc1ccccc1Cc1c(C)nc2c(C(=O)NCc3ccco3)cnn2c1C | 0.9 | 19 |

An excerpt from above in order of formula weight, ascending.
SMILES	AID504770	Ba CapD inh
c1coc(CNC2CCCC2)c1	-0.5	·
Cc1nc2cc3c(cc2[nH]1)OCCO3	0.55	·
CC(=O)Oc1ccc2oc(-c3ccccc3)c(C(=O)O)c2c1	0.85	25
COc1ccc(Cc2nc(-c3ccc(Br)cc3)no2)cc1	1.6	-0.38
Cc1ccc(N2C(=O)CC(Sc3ccccc3C(=O)N3CCOCC3)C2=O)cc1 (centres undefined)	-0.25	-0.42

(cont.)
SMILES	AID504770	Ba CapD inh
O=C1NC(=S)N(c2ccccc2)C(=O)/C1=C\c1ccoc1	-0.75	-5.73*
COc1ccc2[nH]c3nc4cc(C)c(C)cc4nc3c2c1	·	0.77
S=C(NCC(c1cccnc1)N1CCOCC1)NC1CCCCC1 (centres undefined)	0	·
COc1cc(C(=O)Nc2cc3c(cc2N2CCCCC2)n(C)c(=O)n3C)cc(OC)c1OC	-0.4	0.935
CC(OC(=O)CCc1ccc(S(=O)(=O)N2CCOCC2)cc1)C(=O)Nc1ccc(Cl)cn1 (centres undefined)	-0.1	·
CC(=O)Sc1nc(-c2ccc(C)cc2)[nH]c1S(=O)(=O)c1ccccc1	1.2	i
N/C(=N\S(=O)(=O)c1cc(C(F)(F)F)cc(C(F)(F)F)c1)N1CCSCC1	0	0.18
COc1cccc2sc(N(C)c3ccccc3)nc12	-0.25	-0.075
CC(C)n1c(CCNC(=O)C(C)(C)C)nc2ccccc21	-0.8	-0.485
O=S(=O)(NCCO)c1ccc2c(c1)Cc1cc(S(=O)(=O)NCCO)ccc1-2	·	-0.065
O=C(OCC(=O)N1N=C(c2ccc(Cl)cc2)CC1c1ccco1)c1cc(S(=O)(=O)N2CCOCC2)ccc1Cl (centres undefined)	-0.1	·
Cc1cc(=O)n2nc(N(C)CC(=O)NC3CCCc4ccccc43)sc2n1 (centres undefined)	-0.1	-0.03
CCOC(=O)C(Cc1c[nH]c2ccccc12)NC(=O)c1ccc([N+](=O)[O-])cc1Cl (centres undefined)	·	-0.02
Cc1cccc(Nc2cc(=O)[nH]c(=O)[nH]2)c1	1.25	·
COC(CN(C)c1cc(C)nc2c(-c3ccc(Cl)cc3)c(C)nn12)OC	-0.55	-0.02
CSc1nc2ccc(NC(=O)CN3C(=O)CCC3=O)cc2s1	-0.6	0.625
CC(=O)Nc1ccc2c(c1)nc1n2CCN(c2ccccc2)C1	0	4.32
CSc1nn2c(=O)c(Cc3ccccc3)nnc2s1	0.7	-1.66
Cc1ccc(S(=O)(=O)Cc2c(C(=O)c3ccccc3)oc3ccccc23)cc1	·	-0.56
COC(=O)c1ccc(NC(=O)CSc2nc3ccc(NC(=O)CSc4nnc(C)s4)cc3s2)cc1	·	0.37
Cc1cccc(NC(=O)C2CC(=O)N(c3ccccc3)C2)n1 (centres undefined)	-0.75	1.07
Cc1cc(C)n(CCc2nc(-c3ccco3)cs2)n1	-0.9	0.355
O=C(Cn1nnc2ccccc2c1=O)NC(=O)Nc1ccccc1F	-2.35	·
COc1ccc(N(C(C)C(=O)O)S(C)(=O)=O)cc1 (centres undefined)	-0.55	-0.9
Cc1c(C(c2ccccc2Cl)c2c(C)n(C)n(-c3ccccc3)c2=O)c(=O)n(-c2ccccc2)n1C	·	0.055

A few values from the entries so far:
Reading of `CSc1nn2c(=O)c(Cc3ccccc3)nnc2s1` in AID504770: 0.7
Reading of `Cc1n[nH]c(C)c1S(=O)(=O)NCc1ccccc1` in Ba CapD inh: 0.075

Other results follow:
SMILES	AID504770	Ba CapD inh
CC(=O)N(C1=NCCCS1)c1ccccc1F	-0.2	·
O=S1(=O)CCC(Nc2ncnc3cc(-c4ccc(F)cc4)sc23)C1 (centres undefined)	0	·
CC(C)CNS(=O)(=O)c1ccc(S(=O)(=O)N2CCCC(C(=O)NC3CCCCC3)C2)cc1 (centres undefined)	-0.2	·
O=c1ccn(-c2ncc(C(F)(F)F)cc2Cl)c(=O)n1CCc1ccccc1	·	-0.5
Cc1ccc(N2C(=O)/C(=C\c3ccc4c(c3)OCO4)N=C2SC2CCOC2=O)cc1 (centres undefined)	0	·
COc1ccc(NC(=O)Cn2nnc(C(=O)Nc3ccc(OC)c(OC)c3)c2N)cc1	1.9	0.83
O=C(OCc1ccc(Cl)cc1)c1ccc2c(c1)C(=O)N(CCCN1CCOCC1)C2=O	1.4	·
CC(=O)N1CCN(C(=S)c2ccc(C(C)(C)C)cc2)CC1	-0.6	·
Cc1cc(C)nc(N(C)c2ccc(OC(F)(F)F)cc2)n1	·	0.115
CSc1ncnc2c1nnn2Cc1ccccc1Cl	-0.85	-0.595
N#CC(C#N)=Cc1ccc(Cl)s1	-0.6	-1.65
c1ccc(-c2nc3ccc(Cc4ccc5nc(-c6ccccc6)c(-c6ccccc6)nc5c4)cc3nc2-c2ccccc2)cc1	·	0.135
CC(C)n1cc(-c2ccc(C(=O)NCc3ccc(Cl)cc3)cn2)cn1	·	3
Cc1ccccc1OCC(=O)Nc1cccnc1	-0.2	0.495
CNCc1ccccc1C(F)(F)F	0.9	-0.23
O=S(=O)(c1cnc[nH]1)N1CCN(Cc2ccccc2)CC1	-1.9	-0.235
Cc1ccc(N2CCN(S(=O)(=O)c3cc(Cl)sc3Cl)CC2)cc1	·	-0.575
COc1cc(/C=N/S(=O)(=O)c2ccc(Br)cc2)cc(OC)c1O	-1.2	·
CCOc1ccc2nc(Cl)c(CN(Cc3ccco3)C(=O)C3CC3)cc2c1	0.65	·
Cc1cc(C(=O)Nc2ccccc2N2CCCCC2)no1	1.75	0.925
C=CCn1c(SCC(=O)OC(C)(C)C)nc2scc(-c3ccco3)c2c1=O	-0.15	·
COc1ccc2[nH]cc(NC(=O)N3CCN(C(=O)OC(C)(C)C)CC3)c(=O)c2c1	-1.85	·
O=c1oc(-c2ccccc2F)nc2scc(-c3cccs3)c12	·	0.55
O=C1c2ccccc2NC(c2ccc(Cl)cc2Cl)N1c1ccc(I)cc1 (centres undefined)	·	3.91
Cn1ccnc1-c1nc2ccccc2n(CC(=O)O)c1=O	-0.2	·

Whole records, quoted from the list:
`COc1ccc(NC(=O)Cn2nnc(C(=O)Nc3ccc(OC)c(OC)c3)c2N)cc1` as listed: AID504770: 1.9; Ba CapD inh: 0.83
`CN(C)c1cccc(C(=O)NCC(c2cccs2)N(C)C)c1` (centres undefined) as listed: AID504770: -1.25; Ba CapD inh: ·
`COc1cc(C(=O)Nc2cc3c(cc2N2CCCCC2)n(C)c(=O)n3C)cc(OC)c1OC` as listed: AID504770: -0.4; Ba CapD inh: 0.935

Next structures
SMILES	AID504770	Ba CapD inh
CC(=O)N=C(NC(C)=O)c1ccc(N2CCOCC2)cc1	0	-1.48
Cc1ccc(Sc2cc(Br)c3noc4c3c2C(=O)c2ccccc2-4)cc1	·	-0.42
CNc1oc(-c2ccccc2)nc1C#N	0.15	108
Cc1ccc2nc(NC(=O)c3ccccc3C)sc2c1	-0.7	-1.02
Cc1c(C(=O)N2CCN(c3ccc([N+](=O)[O-])cc3)CC2)sc2ncnc(N3CCOCC3)c12	·	-1.36
Cc1nc2sc(C(c3ccccc3)N3CCCCC3)c(O)n2n1 (centres undefined)	-0.5	-0.205
COc1ccc(/C=C2\CC/C(=C\c3ccc(Cl)cc3)C2=O)cc1	-0.4	-0.005
O=C(CN1C(=O)CSc2ncccc21)NCCc1ccccc1	-0.7	0.325
CN(C)CCOC(=O)COc1ccc(Cl)cc1	-0.3	0.205&-0.14
CCN1CCC(=NN2CCOCC2)CC1	0.45	·
CCOC(=O)Cc1c(C)nc(Cc2ccc(OC(C)C)cc2)[nH]c1=O	0.1	8.66
CCOc1ccc(C2SCC(=O)Nc3c2c(=O)[nH]n3C2CCCC2)cc1 (centres undefined)	-0.8	-0.2
COc1ccc(C2CC(c3ccccc3)=NN2C(=O)COC(=O)c2ccco2)cc1 (centres undefined)	-0.5	·
CCc1ccc(-c2nc(CSCC(=O)N3CCN(CC)CC3)c(C)o2)cc1	-0.6	-0.29
CN1C(=O)/C(=C/c2ccc(-c3ccc(C(=O)O)cc3)o2)c2ccccc21	0.7	0.47
CCN(Cc1ccccc1)C(c1cccnc1)c1nnnn1Cc1ccccc1 (centres undefined)	0.5	·
CC1CCC(C(=O)NC(C(=O)Nc2ccc3c(c2)OCO3)C(C)C)CC1 (centres undefined)	-2.2	-0.63
O=C1/C(=C\c2ccccn2)CN(Cc2ccccc2)C/C1=C\c1ccccn1	-1	-0.245
O=C(NCC12CC3CC(C1)CC(CNC(=O)N1CCCC1)(C3)C2)N1CCCC1	-0.7	-0.065
CCS(=O)(=O)c1ccc2oc(SCC(=O)CSc3nc4cc(S(=O)(=O)CC)ccc4o3)nc2c1	0.3	·
Cc1cc(NC(=O)CSc2nnc(-c3cccs3)n2C)no1	-0.2	·
CS(=O)(=O)N1CCCC(C(=O)N2CCN(c3ccc(F)cc3)CC2)C1 (centres undefined)	-0.55	0.065
COC(=O)C1=C(C)N(Cc2ccc(C)cc2)C(=O)/C1=C\c1ccccc1O	0.2	13.2
CCOC(=O)C1(c2ccccc2)CCN(C)CC1	·	0.925
O=C(/C=C/c1cccs1)Nc1nc2c(s1)CCCC2	-0.2	-1.73
Next records follow.
SMILES	AID504770	Ba CapD inh
COc1ccc(-n2cc(-c3ccccc3)c3c(NCc4ccc5c(c4)OCO5)ncnc32)cc1	·	1.53
NC(=O)CSc1nnc(C2CC2)n1C1CC1	-0.15	·
Fc1cccc(Cn2c(/C=C/c3ccccc3Cl)nc3ccccc32)c1	·	46.8
COc1ccc(C2CC(C(F)(F)F)n3nc(C(=O)N4CCN(c5cccc(OC)c5)CC4)cc3N2)cc1 (centres undefined)	·	-0.175
O=C(c1c[nH]c2ccccc2c1=O)N1CCCCC1	-0.65	-1.42
O=C1Nc2nc(=O)nc3[nH]c(=O)nc(n23)N1	0.5	·
N#CCOC(=O)CCc1nc2ccccc2s1	-1.6	·
COC(=O)CSc1ncnc2cc(OC)c(OC)cc12	·	0.21
COC(=O)c1ccc(OCC(=O)Nc2ccccc2C(=O)NC2CC2)cc1	0.8	·
CSc1c(CC(=O)NC(C)(C)CO)n(Cc2ccccc2)c2ccccc12	-0.55	-0.72
COc1ccc(C(=O)C[n+]2ccccc2)cc1CSc1ccc(Cl)cc1	·	0.205
Cc1ccccc1NCc1ccccc1O	-0.45	0.33
CC(Sc1nnc(CC(=O)Nc2ccccc2F)n1C)C(=O)Nc1ccc2c(c1)OCO2 (centres undefined)	1.15	·
Clc1ccc(N=c2scc(-c3ccccc3)n2-c2ccccc2)nc1	·	-0.17
CCN(Cc1ccccc1)C(=O)CSc1nc2ccncc2[nH]1	-0.5	-2.27
Cc1nc(SCc2ncc(-c3ccccc3)o2)c2ccccc2n1	2.8	·
ClCC1CCCO1 (centres undefined)	0	-0.1
Clc1ccc(CN2CCN(/N=C/C=C/c3ccco3)CC2)cc1	-1.4	·
CN(C)CCNC(=O)c1cc(-c2ccc(F)cc2)nc2ccccc12	-0.4	38.7
O=C(CSc1nnc(-c2ccc3c(c2)OCO3)o1)N1N=C(c2cccs2)CC1c1ccco1 (centres undefined)	0.65	·
NC(=O)CCSCCC(N)=O	·	-0.305
Cc1ccc(C)c(OCCCN2CCNCC2)c1	-0.3	0.43

Assay outcomes (PubChem)
